Bioassay records from PubChem BioAssay.
Rango release inh = qHTS Assay for Inhibitors of RanGTP induced Rango (Ran-regulated importin-beta cargo) - Importin beta complex dissociation; Biochemical FRET Rango-importin beta, RanGTP-induced dissociation; actives 0.071% (n = 340,000); AID 540253, 2011; Potency, µM (highest dose often 46.1 µM), for the others: at the highest dose activity change, negative = inhibition; active means falling FRET ratio curve, often poorly fitted, with flat reads before Ran was added; inconclusive means other falling curves, or compound fluorescence or quenching; inactive means flat or rising ratio curve;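 also: potency is read from the fitted curve at half-maximal effect; % of control where 0% means no effect; nearly all actives have a fitted effect of over 45% in size; -100% = wells without RanGTP and RCC1; the record marks most hits as doubtful in a second field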
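Recombinant Rango FRET biosensor (EYFP–snurportin 1 IBB–cerulean CFP10) at 0.1 uM premixed with 0.25 uM importin beta in PBS, 1 mM DTT, 0.02% Tween-20, 0.1% BSA. Compound added 5 min; RanGTP-RCC1 (0.6 uM Ran, 2 mM GTP, 0.2 uM RCC1) then triggers release, read at 45 min.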
miR-21 reporter = qHTS Assay for Modulators of miRNAs and/orActivators of miR-21; HeLa miR-21 FLuc reporter, luciferase, 48 h; Potency, µM (titrated, usually from 38.3 µM), without a hit: at the top dose reporter change, positive = more light; AID 2288, 2010; 340,000 tested, under 10 active; active = well fitted rising curve with a large enough effect; inconclusive = small, poorly fitted or top-dose-only effect; inactive = no such curve, though single readings can be large or run the other way;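 also: % of control where 0% means no effect; miR-21 action dims this reporter so a rising signal means less miR-21 action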
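Compounds were titrated across several concentrations (up to approximately 40 uM) and incubated 48 hours with HeLa miR-21-FLuc reporter cells (miR-21 target sequence downstream of FLuc, endogenous miR-21). Readout was firefly luciferase luminescence after lytic detection reagent.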
GLA inh pH 4.5 = qHTS Assay for Inhibitors of Human alpha-Galactosidase at pH 4.5; AID 1467, 2008; activity change, negative = inhibition, % at 105 µM; 230,000 tested, under 10 active; Alpha-galactosidase A (Homo sapiens), P06280; purified enzyme, 4-MU-alpha-Gal fluorescence, pH 4.5; inconclusive = small, poorly fitted or top-dose-only inhibition, or a rising curve; inactive = flat fitted curve, though single readings scatter; no compound was filed as active;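 also: 0% = full activity with enzyme and -100% = basal without enzyme; dose as in the result columns while the protocol names 77 µM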
Target sequence (P06280 whole entry, looked up): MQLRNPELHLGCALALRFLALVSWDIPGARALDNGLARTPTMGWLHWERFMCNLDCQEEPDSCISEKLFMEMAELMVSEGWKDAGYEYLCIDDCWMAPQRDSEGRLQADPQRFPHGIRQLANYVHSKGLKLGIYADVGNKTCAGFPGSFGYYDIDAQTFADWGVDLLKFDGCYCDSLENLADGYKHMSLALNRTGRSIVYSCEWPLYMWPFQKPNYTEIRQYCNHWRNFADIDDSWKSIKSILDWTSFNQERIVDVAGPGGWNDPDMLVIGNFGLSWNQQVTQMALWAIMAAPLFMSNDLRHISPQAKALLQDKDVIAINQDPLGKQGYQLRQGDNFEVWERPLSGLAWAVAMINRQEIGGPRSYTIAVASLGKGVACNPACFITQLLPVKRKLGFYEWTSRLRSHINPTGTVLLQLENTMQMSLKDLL
Rango-impB inh = qHTS Assay for Inhibitors of Rango (Ran-regulated importin-beta cargo) - Importin beta complex formation; Importin subunit beta-1 (Homo sapiens), Q14974; AID 540263, 2011; Potency, µM (doses to about 92.2 µM), for the others: at the top dose inhibition of complex formation; Rango CFP/YFP FRET sensor + importin beta, 45 min; actives 0.031% (n = 340,000); active = rising FRET ratio curve, often small or poorly fitted; inconclusive = mostly compound fluorescence or quenching in the first reads; inactive = flat curves in all reads;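 also: potency is read from the fitted curve at half-maximal effect; 0% = DMSO wells and 100% = buffer wells lacking importin beta; nearly all actives have a fitted effect of over 15% in size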
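Inhibition scored from the CFP 486 nm/YFP 530 nm FRET ratio 45 min after adding 0.125 microM importin beta to 50 nM Rango biosensor preincubated 5 min with compound (room temperature, PBS with DTT, Tween-20, BSA). No-importin wells as positive control.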
The depositor's hits bear a star; ? = inconclusive; nt = not tested or not shown; & = joins results of further samples. An excerpt; count on the stated rates, not on these rows.

smiles,Rango release inh,miR-21 reporter,GLA inh pH 4.5,Rango-impB inh
COc1ccc(N(Cc2ccccc2)S(=O)(=O)c2cccc(C(=O)NCC3CCCO3)c2)cc1 (configuration not stated),-4%,nt,nt,2.3%
COCc1cc(C)nc(OCC(=O)N/N=C/c2ccc(OC)c(OC)c2)c1C#N,17%,-22%,3,7.3%
CN(C)C=NC(=O)c1cc(C(=O)c2ccc(F)cc2)c[nH]1,4%,3%,5,-7.6%
CCOc1ccccc1CNn1cnnc1,-5%,nt,nt,0.0%
C/C(=N\NC(=O)C1(C)CC1(Br)Br)c1ccc(C)cc1C (configuration not stated),22%,3%,nt,5.8%
COc1ccc(CC(=O)Nc2ccc(S(=O)(=O)N(C)C3CCN(C)CC3)cc2)cc1,-3%,nt,nt,0.2%
Cc1ccccc1N1C(=O)CC(Nc2ccc3c(c2)OCO3)C1=O (configuration not stated),-17%,-2%,5,1.3%
COc1ccc(C)cc1N1C(=N)/C(=C2/Nc3ccccc3S2)C(c2ccccc2)C1=O (configuration not stated),-13%,-1%,-10,-0.1%
COCCN(C(=O)COC(=O)c1ccco1)c1c(N)n(Cc2ccccc2)c(=O)[nH]c1=O,1%,nt,nt,-1.4%
COc1ccc(-c2cnnn2-c2ccc(NC(=O)c3ccc(S(=O)(=O)N4CCCCC4)cc3)cc2)cc1,33%,0%,-25,3.2%
COc1ccc(C(C(=O)Nc2ccc3c(c2)OCO3)N(C)C(=O)Cc2c[nH]c3ccccc23)cc1 (configuration not stated),11%,-4%,-12,0.5%
Cc1ccc(C(=O)NCCSC(C)(C)C)cc1[N+](=O)[O-],9%,-55%,2,6.7%
COCCN1Cc2cccc(C(=O)NCCc3ccccc3)c2C1=O,-7%,-2%,nt,0.4%
CCCSc1nc(NCc2ccco2)c2c3c(sc2n1)COC(C)(CC)C3 (configuration not stated),2%,-1%,-7,-2.8%
Cc1nnc(NC(=O)CSc2nc(CC(C)C)nc3c2c(=O)n(C)c(=O)n3C)s1,17%,4%,14,-4.4%
O=C(Nc1cccc(NC(=O)c2cccnc2)c1)c1cccnc1,-4%,0%,-10,-4.3%
CCCCC(CC)CNC(=O)C1CC=CCC1C(=O)O (configuration not stated),2%,-8%,5,-5.4%
COc1ccc(N2CCN(C(=O)CSc3nnc4c(C)cc5c(C)cc(C)cc5n34)CC2)cc1,14%,18%,-3,0.0%
O=C(CN1C(=O)c2ccccc2C1=O)Nc1ccc(-c2nc3ccccc3o2)cc1,5%,-10%,-7,4.7%
CC1=C/C(=N\Nc2ccccc2[N+](=O)[O-])CC(C)(C)C1,-8%,-3%,-3,1.7%
Cc1ccc(COc2ccc(-c3nnco3)cc2)cc1,-14%,-63%,nt,0.0%
CCOC(=O)c1ccc(NC(=S)N2CCC(C(N)=O)(N3CCCCC3)CC2)cc1,3%,10%,5,0.9%
COC(=O)CNC(c1ccccc1)c1cc(C)ccc1NS(=O)(=O)c1ccc(C)cc1 (configuration not stated),2%,-7%,0,-0.5%
Cc1cc(C(=O)C[N+]2(C)CCOCC2)c(C)n1-c1ccc(Br)cc1,2%,8%,9,-1.7%
CNC(=O)C1C(=S)NC(N)=C(C#N)C1c1ccccc1 (configuration not stated),-12%,0%,4,?
CCN(CC(=O)Nc1c(F)cccc1F)C(=O)c1ccc(=O)n(C)n1,2%,nt,nt,0.4%
Cc1noc(C)c1CSCC(=O)OCC(=O)N1CC(=O)Nc2ccccc21,-2%,-3%,0,-1.1%
Cc1cc(N2CCOCC2)nc2ccc(NC(=O)CCC(=O)N3CCN(c4cccc(C(F)(F)F)c4)CC3)cc12,19%,20%,nt,12%
Cc1cc2c(=O)oc(-c3ccc(F)cc3)nc2s1,-2%,1%,-12,1.5%
CSc1nc(S(=O)(=O)c2ccc(C)cc2)c(Cl)s1,6%,-5%,6,2.4%
Cc1ccc2c(c1)NC(=O)C(CC(=O)NCc1ccc(F)cc1)O2 (configuration not stated),11%,-4%,-5,-2.4%
CC(C)Cn1cc(C(=O)NCc2cccs2)c2c3ccccc3n(C)c2c1=O,-18%,-3%,1,-0.1%
O=C(CN(C(=O)c1csnn1)c1cccc(F)c1)NC1CCCC1,3%,0%,nt,-1.9%
Cc1ccc(S(=O)(=O)c2nc(Nc3ccccc3)sc2Cl)cc1,-9%,26%,-1,-3.0%
c1ccc(-n2nnnc2-n2nnc3ccccc32)cc1,1%,1%,3,-0.1%
Cc1noc(C)c1-c1nc(CS(=O)(=O)c2ccc(F)cc2)no1,-1%,1%,-2,0.0%
CC(C)(C)C(=O)/C(C#N)=C/c1cccs1,-17%,-2%,3,2.7%
COc1ccc(OC)c(C(=O)NC(CC(N)=O)c2ccc(N3CCC(N4CCCC4)CC3)c([N+](=O)[O-])c2)c1 (configuration not stated),-17%,-3%,-5,1.3%
COc1ccc(/C=N/NC(=O)c2ccc(C)cc2)cc1CN1CCN(c2ccc(F)cc2)CC1,-1%,-14%,0,-0.7%
CC(C)CCN(C(=O)c1ccccn1)c1c(N)n(Cc2ccccc2)c(=O)[nH]c1=O,-3%,nt,nt,-1.1%
COc1ccc(S(=O)(=O)N2CCc3ccccc32)cc1C(=O)OCc1c(C)noc1C,?,-8%,-2,2.6%
CC(=O)Nc1ccc(-c2csc(N/N=C\c3ccncc3)n2)cc1,28%,-3%,-5,0.4%
O=C(OC1CCOC1=O)c1ccc(Cl)c(S(=O)(=O)N2CCOCC2)c1 (configuration not stated),1%,nt,nt,-2.5%
O=C(CS(=O)CC(=O)N(CC(=O)NC1CCCC1)c1ccccc1F)Nc1ccc(F)cc1 (configuration not stated),11%,-1%,nt,-0.1%
CN(C)NC(=O)c1ccsc1NC(=O)c1ccc(S(=O)(=O)N(C)C)cc1,-13%,-6%,3,-5.8%
CC(C)CCN1CCN(Cc2cccs2)CC1CCO (configuration not stated),?,-10%,2,0.6%
Cc1ccc(/C=C/S(=O)(=O)NCC(=O)OCC(=O)N2CC(=O)Nc3ccccc32)cc1,8%,-2%,-12,1.7%
O=c1c2cc(NC(=S)N3CCCCC3)ccc2nc2n1CCCCC2,32%,-1%,7,-0.6%
CC(C)C(NS(=O)(=O)c1cccc2nsnc12)C(=O)NCc1ccco1 (configuration not stated),10%,-3%,-1,-2.4%
COc1cc(/C=N/NC(=O)CNC(=O)c2cccs2)ccc1O,1%,-1%,6,-0.3%

Continuation.
smiles,Rango release inh,miR-21 reporter,GLA inh pH 4.5,Rango-impB inh
O=C1CC2(CCN(C(=O)c3ccc(F)cc3)CC2)Oc2ccccc21,-1%,nt,nt,3.8%
Cc1cc2[nH]c(=O)c(=O)[nH]c2cc1S(=O)(=O)N1CCN(c2cccc(C)c2C)CC1,-9%,-4%&-14%,nt,-1.5%
CCC1(c2ccccc2)NC(=O)N(C)C1=O (configuration not stated),?,nt,nt,?
O=C1CC(C(=O)N2CCC(N3CCC(C(=O)NC4CC4)CC3)CC2)c2ccccc21 (configuration not stated),4%,0%,0,?
OC(CNc1nc(-c2cccnc2)nc2ccccc12)c1ccccc1 (configuration not stated),2%,22%,nt,-1.4%
CCCCNC(=O)c1ccccc1NC(=O)CN(c1ccccc1)S(=O)(=O)N(C)C,4%,-4%&11%,9,2.0%
CN(CC(=O)Nc1cccc(Cl)c1)C1=NS(=O)(=O)c2ccccc21,7%,nt,nt,-0.1%
CC(NC(=O)CNC(=O)C1CCCCC1)c1ccc(S(N)(=O)=O)cc1 (configuration not stated),8%,0%,nt,0.7%
CCc1nn(C(C)C(=O)N2CC(C)CC(C)C2)c(=O)c2cc3occc3n12 (configuration not stated),4%,-3%,nt,-0.5%
COc1cccc(OC)c1-c1nnc(-c2cn(C)c3ccccc23)o1,-3%,-19%,1,-2.8%
COc1ccc(OC)c2[nH]c(=O)c(CCNC(=O)c3ccc(S(=O)(=O)N4CCCCC4)cc3)cc12,2%,1%,-8,4.4%
CCN(CC)S(=O)(=O)c1cccc(C(=O)NC2CCCCC2)c1,0%,-22%,-6,-0.8%
O=C(NCc1cccs1)c1ccc2c(c1)ncn2C1CCCC1,8%,-41%,-1,1.6%
C=CCn1c(SCC(=O)Nc2cccnc2Cl)nnc1-c1ccc(Cl)cc1,10%,3%,-4,2.5%
COc1ccc2[nH]c(C(=O)N3CCN(c4ccccc4F)CC3)c(C)c2c1,13%,1%,nt,-0.6%
COc1cc(NS(=O)(=O)c2c(C)oc3c(F)c(F)c(F)c(F)c23)cc(OC)c1OC,18%,11%,nt,6.4%
COc1ccc(CCNC(=O)c2n[nH]c(=O)c3ccccc23)cc1,7%,-2%,3,-2.0%
Cc1cccc(NC(=S)N2CCN(S(C)(=O)=O)CC2)c1,-1%,0%,nt,-3.6%
CC(=O)Oc1ccc(C(=O)OCC(=O)c2c(N)n(C)c(=O)n(C)c2=O)cc1OC(C)=O,-15%,-9%,14,0.7%
NS(=O)(=O)c1cccc(NC(=O)COC(=O)Cc2n[nH]c(=O)c3ccccc23)c1,3%,nt,nt,-0.2%
CN(CC(=O)N1CCN(c2ccccn2)CC1)S(=O)(=O)c1ccccc1,21%,-37%,-7,1.6%
CC(=O)Nc1ccc(C(=O)OCC(=O)NC(=O)NC(C)(C)C)cc1,10%,1%,2,-4.0%
CN(C)C(=O)CSc1ccc(S(=O)(=O)N2CCCC2)cn1,?,nt,nt,?
CCOc1ncccc1C(=O)Nc1ccc(C)cn1,12%,-16%,nt,0.2%
O=C(CN1C(=O)C2CCCCN2C(=O)c2ccccc21)Nc1ccc(F)cc1 (configuration not stated),1%,7%,1,1.4%
Cc1ccc(CN2CCNC(=O)C2CC(=O)N(C)C2CCCCC2)cc1 (configuration not stated),7%,-6%,nt,-1.5%
CCn1ccnc1CN1CCN(CC(C)C)C(CCO)C1 (configuration not stated),0%,?,3,-2.2%
N#CC1=C(N)SC(N)=C(C#N)C1C1CC=CCC1 (configuration not stated),-3%,-4%,3,-0.8%
Clc1cccc(Cl)c1Cn1cnc(=NCc2ccco2)c2[nH]cnc21,1%,-31%,-7,3.2%
O=C(CSc1ccc2nnc(-c3ccncc3)n2n1)Nc1nccs1,5%,6%,-1,-1.6%
O=C1CC[C@H](OCc2ccccc2)CCN1[C@H](CSc1ccccc1)Cc1ccccc1,-21%,-13%,nt,-2.8%
CNC1(C(N)=O)CCNCC1,-7%,1%,4,0.0%
Cc1ccc(S(=O)(=O)NC(CC(C)C)C(=O)NCc2ccco2)cc1 (configuration not stated),14%,1%,7,-0.9%
C=CCn1c(=O)c(C(=O)NCc2ccc3c(c2)OCO3)c(O)c2cc(OC)c(OC)cc21,9%,-4%,nt,3.3%
C/C(=N\NC(=O)c1cc2c(s1)CCC(C)C2)c1cccnc1 (configuration not stated),7%,-48%,5,5.9%
O=c1cc(-c2ccsc2)oc2ccc(-c3ccc4cc[nH]c4c3)cc12,2%,nt,nt,-0.9%
CN(C(=O)c1ccccc1-c1ncc[nH]1)C1CCCN(Cc2ccccc2F)C1 (configuration not stated),1%,-5%,nt,-4.0%

Rewritten with each value named: part of the list above
O=C1CC[C@H](OCc2ccccc2)CCN1[C@H](CSc1ccccc1)Cc1ccccc1
- Rango release inh: -21%
- miR-21 reporter: -13%
- GLA inh pH 4.5: nt
- Rango-impB inh: -2.8%
CNC1(C(N)=O)CCNCC1
- Rango release inh: -7%
- miR-21 reporter: 1%
- GLA inh pH 4.5: 4
- Rango-impB inh: 0.0%
